High-throughput results from PubChem.
YopH PTP inh: blocks Yersinia enterocolitica YopH tyrosine phosphatase; inhibition, %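 (about 10 µM by stock and volumes)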; fluorescence Ex485/Em525; AID 898; 140,000 compounds, 0.16% hits;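 active means inhibition of 50% or more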;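 further: controls were vehicle for no effect and minimum signal wells for full effect; inactives centre near -20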
Arbovirus anti: blocks arbovirus infection; inhibition, % at 10 µM; arbovirus infection cell-based antiviral screen; 200,000 compounds, 0.37% hits;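 active means inhibition from about 30%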;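 further: bluetongue infection of BSR cells; cell survival read as ATP light after 72 h; 0% = infected wells without compound and 100% = uninfected wells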
Mtb growth: M. tuberculosis H37Rv growth inhibitors, H37Rv strain (AID 1626). 220,000 compounds, 0.95% hits. M. tuberculosis H37Rv growth inhibition; higher % means a stronger effect. inhibition, % at 10 µM, or IC50 in µM where a hit was titrated;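 active means confirmed in a dose series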;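 further: bacteria incubated seven days before Alamar blue readout; 0% = bacteria only wells and 100% = bacteria with antibiotic wells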
RecA splice inh: blocks M. tuberculosis RecA intein splicing | cell-free RecA intein splicing, fluorescence | inhibition, %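 (about 9 µM by stock and volumes)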 | 290,000 compounds, 0.75% hits; in the data active means inhibition above about 30%;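 further: 0% = vehicle wells and 100% = reference inhibitor control wells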
Target sequence (P9WHJ3 whole entry, looked up, canonical isoform): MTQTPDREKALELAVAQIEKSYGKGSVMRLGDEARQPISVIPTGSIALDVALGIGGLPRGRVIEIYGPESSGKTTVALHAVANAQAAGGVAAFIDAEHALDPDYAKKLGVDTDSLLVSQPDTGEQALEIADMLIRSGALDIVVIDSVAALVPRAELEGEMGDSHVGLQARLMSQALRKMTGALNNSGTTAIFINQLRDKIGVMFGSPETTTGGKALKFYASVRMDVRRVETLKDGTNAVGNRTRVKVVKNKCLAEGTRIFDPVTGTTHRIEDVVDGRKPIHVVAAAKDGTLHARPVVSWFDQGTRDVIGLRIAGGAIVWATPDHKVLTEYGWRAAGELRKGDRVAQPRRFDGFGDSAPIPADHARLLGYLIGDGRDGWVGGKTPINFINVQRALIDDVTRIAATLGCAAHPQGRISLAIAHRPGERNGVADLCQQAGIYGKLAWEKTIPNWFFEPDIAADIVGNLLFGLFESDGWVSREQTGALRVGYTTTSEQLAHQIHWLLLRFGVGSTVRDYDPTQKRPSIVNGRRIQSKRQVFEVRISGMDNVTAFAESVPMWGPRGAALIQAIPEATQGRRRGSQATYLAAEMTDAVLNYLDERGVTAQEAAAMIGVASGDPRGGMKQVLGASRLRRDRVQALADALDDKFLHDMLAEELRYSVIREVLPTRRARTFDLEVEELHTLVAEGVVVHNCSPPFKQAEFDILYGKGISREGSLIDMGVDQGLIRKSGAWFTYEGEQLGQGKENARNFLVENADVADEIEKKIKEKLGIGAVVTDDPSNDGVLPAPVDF
Mtb betalactam: beta-lactam sensitization of Mtb H37Rv. M. tuberculosis H37Rv growth with meropenem, percent inhibition; hits of this screen are not shown here. 330,000 compounds, 0.27% hits. AID 434955. inhibition, % at 25 µM;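 active means about 74% or more and at least 40 points above the plate without the antibiotic, then above 30% in a dose series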;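 further: growth measured after seven days incubation then overnight dye step; 0% = bacteria only wells and 100% = bacteria with antibiotic; twin plates without the antibiotic show which effects depend on it; some results filed as inactive read as strong as hits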
Arbovirus anti repeat: further read-out of Arbovirus anti, marked with its call; inhibition, %; measured here: 10K subset replicate screen; many hits read low in the repeat;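 first of two repeat runs on a subset; 0% = infected and 100% = uninfected wells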
An asterisk follows results filed as active; . = no result given.

Preview:
SMILES	YopH PTP inh	Arbovirus anti	Mtb growth	RecA splice inh	Mtb betalactam	others
Cc1ccc(C)c(/C=N/n2cc(-c3ccccc3)[nH]c2=S)c1	.	-7.6	1.3%	-2.3	1.2
COc1ccc(C2C(C(=O)N3CCOCC3)CCC(=O)N2c2cc(OC)c(OC)c(OC)c2)cc1 (configuration not stated)	5.0	2.4	-2.6%	-3.5	0.9	Arbovirus anti repeat=-1.0
COc1ccc2cc(CN(CCc3ccccc3)Cc3nnnn3Cc3ccco3)c(=O)[nH]c2c1	-21.4	-16.6	3.1%	9.1	57.9
CC(C)C(NS(=O)(=O)c1cccs1)C(=O)NCCN1CCN(c2ccccc2)CC1 (configuration not stated)	-47.0	-3.5	2.5%	2.6	-1.4

This part in full (from the top)
SMILES	YopH PTP inh	Arbovirus anti	Mtb growth	RecA splice inh	Mtb betalactam	others
Cc1ccc(C)c(/C=N/n2cc(-c3ccccc3)[nH]c2=S)c1	.	-7.6	1.3%	-2.3	1.2
COc1ccc(C2C(C(=O)N3CCOCC3)CCC(=O)N2c2cc(OC)c(OC)c(OC)c2)cc1 (configuration not stated)	5.0	2.4	-2.6%	-3.5	0.9	Arbovirus anti repeat=-1.0
COc1ccc2cc(CN(CCc3ccccc3)Cc3nnnn3Cc3ccco3)c(=O)[nH]c2c1	-21.4	-16.6	3.1%	9.1	57.9
CC(C)C(NS(=O)(=O)c1cccs1)C(=O)NCCN1CCN(c2ccccc2)CC1 (configuration not stated)	-47.0	-3.5	2.5%	2.6	-1.4
O=C(Nc1ccccc1)c1ccccc1NC(=O)C(F)(F)F	-11.5	-0.8	9.6%	-1.3	57.3
Fc1ccc(NCc2nnc3n2CCCCC3)cc1	.	6.5	4.5%	0.3	-0.2
COc1ccc(-c2ccc(SCC(=O)N3CCOCC3)nn2)cc1	-7.7	-8.7	-6.0%	-0.5	-3.9
CCn1c(COc2ccccc2C)nnc1SCc1nc2ccccc2c(=O)[nH]1	.	8.0	0.1%	0.8	-2.2
Cc1ccc(/C=N/NC(=O)c2ccoc2C)o1	-19.6	-11.9	-1.8%	-2.2	0.3
CC(=O)NC1C(=O)N(CCN2CCOCC2)c2ccc(F)cc21 (configuration not stated)	.	.	.	40.9*	4.2
Cc1cc(C)n(-c2cc(N3CCN(C(=O)c4ccc(C(C)(C)C)cc4)CC3)ccc2[N+](=O)[O-])n1	-21.1	-9.4	15.1%	6.5	-0.8
COc1ccccc1C1CCN(c2ccc([N+](=O)[O-])cn2)CC1	.	.	-10.8%	1.8	16.2
COC(=O)c1ccc(/C=C2\SC(=S)N(CCCC(=O)NCCCN3CCOCC3)C2=O)cc1	.	.	.	1.7	-9.9
CC1CN(C(=O)COc2coc(CN3CCc4ccccc4C3)cc2=O)CC(C)O1 (configuration not stated)	.	.	.	1.5	-0.7
COc1ccc(C(=O)COC(=O)CCN2C(=O)C3C4CCC(C4)C3C2=O)cc1 (configuration not stated)	.	5.2	2.5%	0.8	0.2
COc1ccc(-c2cnc3n2CCCCC3)cc1	.	.	0.9%	-3.2	-3.6
COC(=O)CN1CCN(C(=O)c2ccco2)CC1	.	.	.	-6.1	-2.3
CCOC(=O)N1CCN(C(=O)c2ccc(OCC)cc2)CC1	.	2.3	-0.1%	0.5	-4.9
CCOC(=O)C1CCN(C(=O)COc2ccc3c(C)cc(=O)oc3c2)CC1	.	.	.	0.0	-5.3
COc1ccc(Nc2nc(NCc3ccco3)nc(N/N=C/c3ccccc3F)n2)cc1	-14.8	4.0	17.0%	11.0	14.3
COc1ccc(N2CCN(C(CNC(=O)C(C)C)c3ccc4c(c3)OCO4)CC2)cc1 (configuration not stated)	.	.	.	-5.2	-0.6
O=c1cc(CN2CCN(c3ccccc3F)CC2)c2cc3c(cc2o1)CCCC3	-17.3	-0.4	-0.1%	-2.0	10.9
CSc1nc(Oc2ccc3ccccc3c2)c2ccccc2n1	-33.3	-3.5	13.3%	-3.5	61.7
NS(=O)(=O)c1ccc(CCNC(=O)c2nc(CS(=O)(=O)c3ccc(Cl)cc3)no2)cc1	.	.	.	0.7	3.2
C#Cc1ccc([C@H]2C=C(C(=O)OCC=C)O[C@@H](OCCCCO)C2)cc1	.	.	-2.9%	2.4	-4.3

(further entries)
SMILES	YopH PTP inh	Arbovirus anti	Mtb growth	RecA splice inh	Mtb betalactam	others
C/C(=C\c1cccc(Br)c1)C(=O)c1c(C)cc(C)[nH]c1=O	.	.	.	2.7	2.3
Cc1ccc(NCc2nnc(SCC(=O)Nc3cc(C)on3)n2C)cc1	30.1	9.6	-5.9%	0.5	-7.0
COc1ccc(NC(=O)CN2C(=O)c3ccccc3S2(=O)=O)cc1OC	.	.	.	-0.7	0.0
CC(=O)c1ccc(N(C(=O)CNC(=O)c2cccs2)C(C(=O)NCC2CCCO2)c2ccccc2)cc1 (configuration not stated)	.	.	.	-0.5	-12.6
CC(=O)c1cccc(OCc2cc(C(=O)N(C)CCC3CCOCC3)no2)c1	.	.	.	-2.8	-4.5
CC(C)C(=O)Nc1ccc2c(c1)C(=O)NC2=O	.	2.9	-7.8%	-0.4	-2.8
COC(=O)c1cc(S(=O)(=O)NCc2ccccc2)c[nH]1	.	.	.	-0.8	5.8
CC1CCc2cc(F)ccc2N1C(=O)C1(C)CC1(Cl)Cl (configuration not stated)	-3.4	14.5	7.9%	.	10.6
O=C(Nc1cc(C(F)(F)F)ccc1Cl)c1ccc(NC(=O)C(F)(F)F)cc1	-27.0	-15.1	4.9%	-0.3	4.5
O=C1CSC(=S)N1c1ccc(O)cc1	.	.	.	-0.7	1.3
O=[N+]([O-])c1cc(-c2csc(NC(CO)c3nc4ccccc4n3CCOCCO)n2)ccc1Cl (configuration not stated)	.	.	-4.8%	0.7	-0.8
O=C(NCC(=O)N1CC(O)CC1C(=O)N1CC(O)CC1C(=O)OCc1ccccc1)OCc1ccccc1 (configuration not stated)	.	13.9	-4.5%	5.7	-10.8
COc1ccc(C(=O)Nc2cc(C(=O)c3ccccc3)c(C)oc2=O)cc1	-11.1	4.1	-4.9%	-2.0	5.4
COC(=O)c1ccccc1NC(=O)N1CCN(S(=O)(=O)c2ccc(Cl)cc2)CC1	0.2	-1.8	-5.4%	4.2	-8.3
COc1ccc(CNc2nc3c(c(=O)n(Cc4ccc(F)cc4)c(=O)n3C)n2C)cc1	-35.1	-19.7	5.5%	-0.5	4.1
Cc1cc(NC(=O)Cn2cnc3c(nnn3-c3ccc(C)c(Cl)c3)c2=O)no1	.	-12.0	12.9%	-4.8	-9.7
O=C(NCC1CCCO1)c1cccc(Br)c1 (configuration not stated)	-17.5	3.5	-5.8%	2.1	4.3
COC(=O)c1ccc(S(=O)(=O)N2CCN(CCO)CC2)n1C	.	.	3.2%	0.1	6.5
COC(=O)C(=NNc1c(C)n(C)n(-c2ccccc2)c1=O)C(=O)OC	-14.1	-6.8	-2.9%	1.4	7.0
Cc1ccc(S(=O)(=O)N(C)c2ccc(OC(C)C(=O)N3CCCC3)cc2)cc1C (configuration not stated)	.	.	.	-7.6	-4.0
O=C(Cc1ccccc1)NCC1CCCO1 (configuration not stated)	-9.0	7.0	8.6%	-2.6	-2.1
COc1ccc(/C=C/C(=O)OCC(=O)c2c(N)n(C)c(=O)n(C)c2=O)c(OC)c1	.	-4.9	5.9%	1.3	2.9
Cc1cc(Cl)c(OCCOCCN2CCCCC2)c(Br)c1	-9.1	-12.2	-6.0%	-3.2	-1.9
Nn1c(SCC(=O)N2CCCCC2)nnc1-c1ccncc1	-23.3	6.2	-9.3%	1.6	3.5
CCc1ccc(C=NC23CN4CN(CN(C4)C2)C3)s1	-8.7	3.3	-4.8%	1.3	8.8

(further entries)
SMILES	YopH PTP inh	Arbovirus anti	Mtb growth	RecA splice inh	Mtb betalactam	others
CC(C)S(=O)(=O)N1CCN(c2ccnc3cc(Cl)ccc23)CC1	.	.	3.3%	0.6	-12.6
O=C(O)COc1c(-c2ccccc2)oc2ccccc2c1=O	-20.2	-2.5	-6.5%	-4.3	10.3
COc1cccc([C@@H]2Oc3ccc(OC)cc3C(=O)[C@H]2O)c1	-18.8	-3.8	5.2%	-3.5	0.9
O=c1c(Cc2ccccc2)c(O)ccn1CCc1cnc[nH]1	.	-0.7	6.3%	-2.2	6.9
COc1cccc(Oc2c(C)oc3cc(OC(=O)N(C)C)ccc3c2=O)c1	-26.2	-1.2	-5.1%	-1.0	0.6
CC(=O)NC1C(Oc2ccc3c(C)cc(=O)oc3c2)OC(COC(C)=O)C(OC(C)=O)C1OC(C)=O (configuration not stated)	.	4.8	-3.2%	1.5	-3.7
COc1ccc(/C=C(/NC(=O)c2ccccc2)C(=O)NC(Cc2c[nH]c3ccccc23)C(=O)O)cc1 (configuration not stated)	.	.	.	0.5	-2.9
c1ccc(-n2nnnc2-c2cnc(-c3ccncc3)nc2-c2cccs2)cc1	-26.4	-1.3	-6.7%	8.4	-9.4
COc1cc2cc(C(=O)N[C@@H](Cc3ccccc3)C(=O)O)n(C)c2c(OC)c1OC	.	.	.	1.9	-6.1
O=C(CNC(=S)N(CCCN1CCOCC1)Cc1cccs1)NC1CC1	-8.7	-3.9	-6.8%	-1.1	-2.8
Cc1cc2nnc(SCC(=O)N3CCCCC3)n2c(N)n1	.	2.6	-7.8%	-1.0	2.5
Cc1ccc2c(c1)N(C(=O)CCC(=O)N1CCC(C(N)=O)CC1)CC(C)O2 (configuration not stated)	.	.	.	0.0	-8.1
O=S(=O)(CCNCc1cccs1)c1ccc(Cl)cc1	.	.	-0.9%	1.0	-12.6
Cc1ccc(-c2cnc(-c3ccncc3)o2)cc1	-41.2	8.3	2.2%	-9.5	6.2
CC(C)(C)C(=O)OC/C(N)=N/OC(=O)c1ccc(Cl)cc1	.	.	0.2%	11.7	-6.4
Cc1ccc(-n2[nH]c(C)c(/C=N/NC(=O)c3ccc([N+](=O)[O-])cc3)c2=O)c(C)c1	.	-30.4	5.1%	32.1*	99.5
CC(C)(C)c1cc(C(=O)NNC(=O)Nc2ccccc2)n(Cc2ccccc2)n1	.	.	7.7%	.	-0.5
COc1ccc(NS(=O)(=O)c2cc(NC(=O)c3sccc3C)ccc2N2CCOCC2)cc1	.	.	-8.1%	.	-0.9
CCS(=O)(=O)c1nc(S(=O)(=O)c2ccc(C)cc2)c(N2CCCC2)s1	.	.	.	-9.2	-5.3
CCOC(=O)C1CCCN(CCC(=O)Nc2ccccc2)C1 (configuration not stated)	1.9	-0.1	-0.5%	-3.0	0.5
O=C(c1scc2c1CCCC2)N1CCCCC1	-8.1	0.6	2.3%	0.1	1.4
O=P(OC1CCCCC1)(OC1CCCCC1)C(O)c1cccnc1 (configuration not stated)	.	.	-6.1%	-1.1	-1.8
O=C(/C=C/c1ccc2c(c1)OCO2)c1ccc[nH]1	-10.2	-0.8	-3.6%	0.4	-3.8
CCOC(=O)c1c(O)c2cccc3c2n(c1=O)CC3	.	.	-3.3%	.	10.3
CCOc1cc(/C=C/c2cc(C(F)(F)F)[nH]c(=O)n2)ccc1O	.	10.5	2.0%	-4.6	18.9

Following part
SMILES	YopH PTP inh	Arbovirus anti	Mtb growth	RecA splice inh	Mtb betalactam	others
O=C(Cn1c(NCCO)nc2ccccc21)c1ccccc1	-30.3	8.0	-2.1%	3.2	-6.0
CCCCn1c(=N)n(CC(=O)c2ccc(OC)cc2)c2ccccc21	.	.	5.0%	5.8	3.4
COC(=O)CC1=C(C(=O)OC)C(c2ccc3c(c2Cl)OCO3)C(C#N)=C(N)O1 (configuration not stated)	10.7	4.0	-4.4%	-0.9	-5.8
CCN1CCCC(OC(=O)c2cc(-c3ccc(C)cc3)nc3ccccc23)C1 (configuration not stated)	.	-6.3	6.1%	1.3	6.9
CSc1ccccc1NC(=O)c1ccncc1	6.6	-0.4	0.2%	-1.0	1.8
c1cn(CCCNc2ncnc3nc[nH]c23)cn1	11.9	8.5	8.4%	0.6	-2.2	Arbovirus anti repeat=3.3
Cc1cc(C)c(C)c(OCC(=O)O/N=C(\N)c2cccnc2)c1	.	.	-6.4%	0.9	2.2
O=C(NNc1nc2c(F)cc(F)cc2s1)C1COc2ccccc2O1 (configuration not stated)	.	20.6	14.1%	-5.7	12.6
CCN1CCN(C(=O)Nc2ccc(OC)cc2OC)CC1	.	2.1	-4.8%	-2.7	-1.0
COc1ccc(CCn2c(=N)c(C(=O)NCC3CCCO3)cc3c(=O)n4cccc(C)c4nc32)cc1 (configuration not stated)	.	.	.	-9.8	1.7

Structures from the list above that have a furan ring, fused or not, in the order listed:
SMILES	YopH PTP inh	Arbovirus anti	Mtb growth	RecA splice inh	Mtb betalactam	others
COc1ccc2cc(CN(CCc3ccccc3)Cc3nnnn3Cc3ccco3)c(=O)[nH]c2c1	-21.4	-16.6	3.1%	9.1	57.9
Cc1ccc(/C=N/NC(=O)c2ccoc2C)o1	-19.6	-11.9	-1.8%	-2.2	0.3
COC(=O)CN1CCN(C(=O)c2ccco2)CC1	.	.	.	-6.1	-2.3
COc1ccc(Nc2nc(NCc3ccco3)nc(N/N=C/c3ccccc3F)n2)cc1	-14.8	4.0	17.0%	11.0	14.3

An excerpt; count on the stated rates, not on these rows.
